# Bioassay records: PubChem BioAssay, National Center for Advancing Translational Sciences (NCATS)
# PINK1 modulator – A Quantitative High throughput Screen to Identify Chemical Modulators of PINK1 Expression; PINK1 immunofluorescence, high-content cytometry, 24 h; Potency, µM (doses to about 76.6 µM), for inactives: at the highest dose activation (PINK1 increase), most hits filed as activators; 410,000 compounds, 0.2% hits; active = well fitted activation curve with a large enough effect; inconclusive = small, poorly fitted or top-dose-only effect; inactive = flat fitted curve, though single readings scatter; cell line not stated here;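 note: potency is the fitted concentration of half-maximal effect; % of control where 0% means no effect; nearly all actives have a fitted effect of over 65% in size; a mitochondrial uncoupler was the plate control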
#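 Compound titrations (5 concentrations, 24 h) on a stable cell line; DMSO and CCCP controls. Endpoint: fixed-cell PINK1 immunofluorescence with mitochondrial, cell and nuclear markers, scanned by microplate cytometer.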
# D2 agonist – Beta-Arrestin HTS for Positive Allosteric Modulators of the Human D2 Dopamine Receptor: Agonists; D(2) dopamine receptor (Homo sapiens), P14416; DiscoveRx PathHunter D2 beta-arrestin, luminescence, 90 min; 100% = 57 uM dopamine signal; activation, % (no concentration beside the values); 360,000 compounds, 0.084% hits; AID 624465, 2012; in the data active = activation above about 40%; inconclusive = about 15% to 40%; inactive = below about 15%; note: compound concentration not given in the record; the text of the record calls up to 30% inactive
#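 Agonist mode: compounds alone added to overnight-plated D2 PathHunter cells for 90 min at 37 C, with 57 uM final dopamine (EC100) defining full response. Beta-arrestin recruitment detected by chemiluminescent reagent, read after 1 h at ambient temperature.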
# CtBP-E1A inh – qHTS Assay for Inhibitors of the CtBP/E1A Interaction; 340,000 compounds, 0.49% hits; AlphaScreen GST-E1A/His-CtBP binding, 1536-well; hits give low values; control for the full effect not named in the record; activity change, % (no concentration beside the values); AID 651724, 2012; in the data active means activity change below about -65%; inconclusive means about -30% to -65%; inactive means above about -30%; note: % is set by controls: 0 for no effect and ±100 for the full control effect
#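 Steps: dispense buffer (Tris pH 8.0, NaCl 300 mM, TCEP 1 mM, BSA, Tween 20); add 5X protein mix (GST-E1A, His-CtBP, 125 nM each); pin 23 nL compound; 2 h at 37 °C, dark; add 5X beads (50 ug/mL); 1 h; read.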
# Six1-Eya2 blk – qHTS Assay for Inhibitors of the Six1/Eya2 Interaction; Homeobox protein SIX1 (Homo sapiens) + Protein phosphatase EYA2 (Homo sapiens), …; AlphaScreen GST-Six1/His-Eya2 binding, biochemical; hits give low values; control for the full effect not named in the record; activity change, % (no concentration beside the values); 360,000 compounds, 0.56% hits; AID 651725, 2012; in the data active = activity change below about -65%; inconclusive = about -30% to -65%; inactive = above about -30%; note: % is set by controls: 0 for no effect and ±100 for the full control effect
# Target sequence (O00167 whole entry, looked up): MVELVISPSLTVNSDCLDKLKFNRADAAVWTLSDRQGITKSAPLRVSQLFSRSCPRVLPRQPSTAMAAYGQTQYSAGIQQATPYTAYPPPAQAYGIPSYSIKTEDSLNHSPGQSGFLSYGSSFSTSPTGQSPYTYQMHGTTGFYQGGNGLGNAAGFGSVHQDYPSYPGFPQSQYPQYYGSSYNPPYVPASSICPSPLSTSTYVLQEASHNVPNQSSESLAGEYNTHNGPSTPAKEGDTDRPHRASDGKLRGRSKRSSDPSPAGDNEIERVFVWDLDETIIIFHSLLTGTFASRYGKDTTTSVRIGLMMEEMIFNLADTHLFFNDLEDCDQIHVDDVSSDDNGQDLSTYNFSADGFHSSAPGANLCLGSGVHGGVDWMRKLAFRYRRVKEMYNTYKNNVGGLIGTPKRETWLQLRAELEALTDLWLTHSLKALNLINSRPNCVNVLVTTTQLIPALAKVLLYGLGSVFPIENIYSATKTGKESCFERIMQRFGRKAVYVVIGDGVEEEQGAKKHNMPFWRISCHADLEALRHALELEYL
# Target sequence (Q15475 whole entry, looked up): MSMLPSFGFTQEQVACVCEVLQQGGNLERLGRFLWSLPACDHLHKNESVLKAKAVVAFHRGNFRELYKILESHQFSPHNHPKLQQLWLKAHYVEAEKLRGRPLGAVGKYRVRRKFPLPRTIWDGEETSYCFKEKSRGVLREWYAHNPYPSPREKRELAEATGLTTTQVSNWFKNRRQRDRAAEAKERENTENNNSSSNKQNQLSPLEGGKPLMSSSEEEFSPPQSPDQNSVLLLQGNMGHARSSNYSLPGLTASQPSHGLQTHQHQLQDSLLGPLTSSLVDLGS
#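 AlphaScreen luminescence read after one hour at 37 °C in darkness. Pin-transferred compounds met GST-Six1 and His-Eya2 protein (5X stock 250 nM/500 nM) plus glutathione donor and Ni-chelate acceptor beads (5X, 50 ug/mL).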
# TRPML1 inh – qHTS for Inhibitors of the Human Mucolipin Transient Receptor Potential 1 (TRPML1); TRPML1-inducible cells, Ca2+ dye fluorescence, FDSS; hits give low values; inhibition of EC80 agonist-evoked calcium signal; Mucolipin-1 (Homo sapiens), Q9GZU1; activity change, negative = inhibition, % (concentration not given with the values); 390,000 compounds, 0.02% hits; in the data active means activity change below about -50%; inconclusive means about -30% to -50%; inactive means above about -30%;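 note: stimulus is agonist 54-4 at its EC80 concentration; % is set by controls: 0 for no effect and ±100 for the full control effect; the text of the record puts the active cut at -80%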
#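 Calcium fluorescence in TRPML1-DL cells induced overnight with Tet: a 110 s read after compound pin addition, then a 110 s antagonist read after challenge with 54-4 at 4 uM final (EC80).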
# TRPML1 ag – qHTS for Agonists of the Human Mucolipin Transient Receptor Potential 1 (TRPML1); Mucolipin-1 (Homo sapiens), Q9GZU1; TRPML1-expressing cells, Ca2+ dye fluorescence, FDSS; host cell line not named in the record; reference of the full effect not given here; activation, % (concentration not given with the values); 410,000 compounds, 0.12% hits; AID 624414, 2012; in the data active = activation above about 50%; inconclusive = about 30% to 50%; inactive = below about 30%; note: 0% is about no effect; the text of the record puts the active cut at 80%
#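 In this qHTS format, compounds were pin-transferred onto Ca8-dye-loaded TRPML1-DL cells induced with Tet overnight, and intracellular Ca2+ fluorescence was recorded kinetically for 110 s after a 10 s baseline. A subsequent 4uM final 54-4 (EC80) addition followed by a second 110 s read served as the antagonist phase.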
# Starred values were filed as active, the others as inactive; ? = inconclusive; . = no result given; [ ] = remark or other dose.
SMILES,PINK1 modulator,D2 agonist,CtBP-E1A inh,Six1-Eya2 blk,TRPML1 inh,TRPML1 ag
CCOc1ccccc1NC(=O)c1c(NC(=O)COc2ccccc2)sc2c1CCCCC2,9.0%,.,.,.,-3,-0.5
O=c1[nH]c(CN2CCN(c3ccc([N+](=O)[O-])cc3)CC2)nc2ccsc12,1.0%,0.5,-1,-9,-14,0.2
COc1ccccc1NC(=O)COc1coc(CN2CCN(c3ccccc3)CC2)cc1=O,0.2%,11,-17,4,7,1.2
CCN=c1scc(-c2ccc(F)cc2)n1/N=C/c1ccccn1,0.4%,-3.0,0,?,27,1.1
CC(C)[C@H](NS(=O)(=O)c1ccccc1)C(=O)OCC(=O)Nc1ccc2c(c1)OCO2,2.8%,-4.1,2,3,4,1.2
Cc1cccc(-n2cc(C#N)c(=O)[nH]c2=O)n1,-0.1%,-2.0,-3,0,-3,-0.7
FC(F)(F)c1cccc(Nc2nc3nonc3nc2Nc2ccc(Cl)cc2)c1,?,.,.,.,35,0.4
CCCCCOc1ccc(C2C(C(=O)c3ccc(C)o3)=C(O)C(=O)N2c2cc(C)on2)cc1 (centres undefined),8.8%,1.2,-6,-12,-5,-0.3
O=C(CCCN1C(=O)/C(=C/c2ccccc2)SC1=S)Nc1cccc(O)c1,-0.9%,-5.6,.,-4,6,0.0
Cc1ccc(S(=O)(=O)N2CCOCC2)cc1NC(=O)CSc1nc2ccccc2c(=O)n1Cc1ccccc1,-0.2%,-1.6,6,2,26,1.8
OCCSc1nncn1/N=C/c1c[nH]c2ccccc12,-1.5%,-3.0,-1,-7,-2,-0.1
CC1Sc2ccc(S(=O)(=O)NCCc3ccc(Cl)cc3)cc2NC1=O (centres undefined),7.6%,1.3,.,-2,21,-0.4
O=C(C1CCCN(S(=O)(=O)c2ccc(F)cc2)C1)N1CCCCC1 (centres undefined),-0.1%,-0.1,6,-1,-3,-0.4
CC(C)(C)S(=O)(=O)N1Cc2ccc(CO)cc2[C@@H]1CCO,1.6%,-2.3,1,2,-3,-0.5
CCC(C(=O)NCc1cccc(C)c1)n1nc(C)c2c(C)n(-c3ccccc3)nc2c1=O (centres undefined),4.1%,6.6,.,-3,-2,1.4
COc1cccc(/C=N/Nc2ncnc3c2[nH]c2ccc(C)cc23)c1OC,13%,-6.2,.,-7,65,0.2
CCOC(=O)c1c(NC(=O)/C=C/C(=O)O)sc(C)c1-c1ccc(C(C)(C)C)cc1,-1.7%,-1.9,3,-10,-3,0.6
Cc1ccccc1-n1c(=S)[nH]c2nc3c(cc2c1=O)COC(C)(C)C3,2.1%,-2.3,-9,1,.,.
CN(C)CCCN(C(=O)c1cc(-c2cccs2)nc2ccccc12)c1nc2c(F)cccc2s1,0.1%,-2.5,-14,-30,-11,0.1
COc1cc(-c2cc3nc(NCc4cccc(Cl)c4)ccn3n2)cc(OC)c1OC,?,4.9,-15,-12,8,-0.3
Cc1c(NC(=S)Nc2ccc(Cl)cc2)c(=O)n(-c2ccccc2)n1C,0.3%,-16,14,0,38,-0.2
COc1ccc(Cc2nn3c(-c4ccccc4OC)nnc3s2)cc1,-0.9%,-5.0,-8,-5,27,2.2
C/C(N)=C(/C#N)C(=O)COC(=O)COc1ccc(Cl)cc1C,0.1%,-1.1,1,9,-7,1.3
Cc1oc(S(=O)(=O)N2CCCCC2)cc1NC(=O)Nc1ccccc1,0.9%,-0.4,-8,-13,-3,-0.3
COc1ccc(OC)c(NC(=O)CN2C(=O)COc3ccc(S(=O)(=O)NC4CCCC4)cc32)c1,0.4%,.,.,.,8,-0.3
Cc1ccc(C)c(CSC2=NN3CCCC(=O)N=C3S2)c1,6.4%,4.2,-7,3,-6,0.8
COC(=O)c1ccccc1NC(=O)N1CCc2ccc(NC(=O)c3ccccn3)cc2C1,6.4%,-2.3,-5,4,3,-0.7
O=C(NCCCn1ccnc1)/C(=C\c1cccnc1)NC(=O)c1cccc(Br)c1,-0.2%,0.4,9,19,4,-1.1
CCOC(=O)c1nnn(CC(=O)NC(=O)Nc2ccccc2F)c1C(=O)OCC,0.1%,.,.,.,30,0.4
c1ccc(Cc2ccc(OCCn3ccnc3)cc2)cc1,0.1%,-0.2,-6,-12,48,2.2
CCOC(=O)Cc1cc(=O)n2[nH]c(-c3ccc(Cl)cc3)cc2n1,1.8%[38.3 µM],-1.2,2,-2,51,-0.2
CCCNC(=O)Cn1cnc2sc(C(=O)NCCN(CC)CC)c(C)c2c1=O,1.6%,-2.9,-1,-7,31,1.0
CCN(CCO)Cc1csc2c(Br)cccc12,1.3%,0.6,-4,17,37,0.1
CCC(C(=O)N1CCN(c2cc(Cl)ccc2C)CC1)n1nc(C)n2c(cc3occc32)c1=O (centres undefined),1.3%,.,.,.,-1,-0.3
CC(=O)c1c(C)n(-c2ccccc2)c2ccc(OCC(O)CN3CCOCC3)cc12 (centres undefined),.,0.7,0,0,-6,-0.1
CCC(C)(C)NS(=O)(=O)c1cc(CN2C(=O)c3cccnc3C2=O)ccc1OC,-2.2%,3.3,-21,-8,5,2.7
COc1cc(OC)c(Nc2nc3ccccc3c3nncn23)cc1Cl,3.1%,.,.,.,-14,-0.6
Cc1ccc(-c2cc(C(=O)NCc3ccccn3)c3ccccc3n2)cc1C,3.0%,-5.5,-19,-8,24,3.5
Cc1occc1C(=O)Nc1cccc(Cn2cccn2)c1,0.4%[38.3 µM],-0.3,-2,-2,0,0.4
N#Cc1nc(-c2cccc(Cl)c2)oc1N1CCC(C(N)=O)CC1,-0.2%,-0.3,-5,-9,-3,-0.7
COc1ccc(N2CCN(C(=O)CCc3c(C)nc4cc(-c5ccc(Cl)cc5)nn4c3C)CC2)cc1,2.2%,.,.,.,-3,-0.6
O=C(Nc1ccc(CN2CCOCC2)cc1)c1ccc(Cl)cc1,0.4%,1.2,.,0,3,0.0
CC1=C(C(=O)OCc2ccccc2)C(c2ccsc2)NC(=O)N1C (centres undefined),0.0%,3.3,-24,-4,-5,3.4
Cn1cnc(S(=O)(=O)Nc2ccc(C(F)(F)F)cc2)c1,-2.6%,0.6,7,6,-1,0.4
COC(=O)c1ccc(C2Nc3c(C)cc(C)cc3C3C=CCC32)cc1 (centres undefined),0.6%,.,.,.,13,-0.3
Cc1ccc2c(c1)sc1nc(=O)n(-c3ccccc3)c(=O)n12,2.3%,-5.7,5,-1,17,1.1
O=C(COC(=O)c1ccc(Br)o1)NCC1CCCCC1,2.3%,-2.4,4,10,9,0.3
CSc1cccc(CN(C)C(=O)C2CCC(=O)N(CCCN3CCCC3=O)C2)c1 (centres undefined),-1.1%,-1.6,3,5,-16,-0.8
Cc1cccc(NC(=O)CCNC(=O)c2ccc(Br)cc2)c1,4.5%,-1.3,4,10,-12,1.1
CC(=O)Nc1ccc(NC(=O)C2CCCCN2S(=O)(=O)c2ccc(C(C)(C)C)cc2)cc1 (centres undefined),-1.4%,4.4,0,-7,1,1.2
COC(=O)c1cc(NC(=O)C(C)c2ccc(CC(C)C)cc2)ccc1O (centres undefined),-0.9%,-1.1,1,11,-18,0.1
COc1cc(N)c(Cl)cc1C(=O)OCC(=O)N1c2ccccc2NC(=O)C1(C)C,1.9%,-1.9,3,-1,2,-0.3
COc1ccccc1CNCC(=O)Nc1cc(S(=O)(=O)N2CCCCC2)ccc1C,-0.9%,?,1,9,-9,0.1
O=C(OCc1nc2ccsc2c(=O)[nH]1)c1cccc(S(=O)(=O)N2CCOCC2)c1,-0.3%,-4.8,0,-12,2,0.9
COc1ccccc1Cc1c(-c2ccc(OC)c(OC)c2)nc2c(C)cc(Br)cn12,16%,4.3,1,-2,.,0.4
COc1ccccc1C(=O)Nc1ccnn1C1CCN(C/C=C/c2ccccc2)CC1,-3.5%,-7.7,-3,-2,2,0.7
O=C(CN1CCC(C(=O)c2ccc(Cl)cc2)CC1)NC1CCCC1,0.5%,-5.4,-1,8,21,-0.2
O=S(=O)(c1ccc(Br)cc1F)N1CCC(O)CC1,-0.5%,-2.6,1,-2,23,-0.8
O=S(=O)(c1ccc2ccccc2c1)N1CCNCC1,-1.0%,?,-2,3,-7,0.7
CCc1ccc(NC(=O)NCCCN2CCCC2=O)cc1,0.4%,-3.4,1,-8,-4,0.3

# Shown with two lines to a compound: part of the list above
# Values run as follows: PINK1 modulator	D2 agonist	CtBP-E1A inh	Six1-Eya2 blk	TRPML1 inh	TRPML1 ag
> COC(=O)c1ccccc1NC(=O)N1CCc2ccc(NC(=O)c3ccccn3)cc2C1
    6.4%	-2.3	-5	4	3	-0.7
> O=C(NCCCn1ccnc1)/C(=C\c1cccnc1)NC(=O)c1cccc(Br)c1
    -0.2%	0.4	9	19	4	-1.1
> CCOC(=O)c1nnn(CC(=O)NC(=O)Nc2ccccc2F)c1C(=O)OCC
    0.1%	.	.	.	30	0.4

# (continued)
SMILES,PINK1 modulator,D2 agonist,CtBP-E1A inh,Six1-Eya2 blk,TRPML1 inh,TRPML1 ag
O=C(c1cc(=O)c2ccccc2o1)N1CCN(c2ccccc2F)CC1,-0.7%,-2.4,1,-3,-11,-0.3
O=S(=O)(c1ccc(Oc2ccc(Br)cc2)cc1)N1CCOCC1,7.5%,-0.9,16,9,2,0.3
CN(C)S(=O)(=O)c1ccc(C(=O)NCc2nnc(SCC(=O)NCc3ccco3)o2)cc1,0.2%,-8.0,5,2,2,1.4
COc1ccc(/C=C/C(=O)NC(=S)NNC(=O)c2c(-c3ccccc3)noc2C)cc1,-0.9%,-8.8,-10,-14,24,1.6
Cc1cc(N2CCN(C(=O)c3ccco3)CC2)c2ccccc2n1,-0.2%,-1.3,.,-4,-18,0.2
O=C(COc1ccccc1-c1nc(-c2ccccc2)no1)Nc1ccccc1[N+](=O)[O-],-0.3%,.,.,.,-1,-0.1
CCOC(=O)C1=C(C)NC2=C(C(=O)CCC2)C1c1coc2ccccc2c1=O (centres undefined),-1.2%[38.3 µM],-1.8,8,-4,83,-0.3
Cc1cccc2c1c1ccc3c(c1n2C)C(=O)C=CC3=O,?,11,.,-13,2,1.0
CCOC(=O)C1CCN(c2nc(-c3ccc(C)cc3)nc3ccccc23)CC1,-0.9%,-6.3,-1,21,-22,-0.6
O=C1C(Oc2ccccc2)C(c2cccs2)N1Cc1ccc2c(c1)OCO2 (centres undefined),-0.7%[38.3 µM],-0.7,16,-1,41,4.9
O=C(COC(=O)c1nc(Cl)ccc1Cl)NNC(=O)c1cccs1,-2.8%,-3.5,4,-3,9,0.0
CCN(c1cc(C)cc(C)c1)S(=O)(=O)c1nnc(NC(=O)c2cccc(F)c2)s1,4.0%,.,.,.,-29,1.6
